# Bioassay records deposited in PubChem BioAssay by several laboratories.
# Yfh1-off respiration: mitochondrial function rescue without frataxin homolog – Friedreich's ataxia, plus single-dose screen, dose response (AID 1465); S. cerevisiae Yfh1-off respiration, WST-1 reduction, 72 h; higher fold induction means a stronger effect; fold induction at 50 µM, or EC50 in µM where a hit was titrated; actives 0.074% (n = 220,000);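 active = fold induction of absorbance versus untreated yeast above a set limit, then at least 30% activation at any dose in follow-up; inconclusive = repeats straddling the limit, or above it without dose testing; inactive = fold induction below the set limit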;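 note: activators that raise dye reduction in frataxin-depleted yeast; strong numbers were not always called active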
# NTR1 ag: agonists of NTR1, primary screen, imaging, U2OS cells, beta-arrestin-GFP, high content (AID 493036). activation, % at 20 µM. P30989. NTR1-U2OS beta-arrestin-GFP spot imaging, agonist mode. actives 0.17% (n = 330,000);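 active = activation at or above 40% of the spot to cytoplasm intensity ratio, with at least 20 cells analyzed; inconclusive = wells under 20 cells, flagged as cytotoxic or low count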;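 note: 0% = DMSO without peptide and 100% = 100 nM NTR1 peptide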
# Target sequence (P30989 whole entry, looked up): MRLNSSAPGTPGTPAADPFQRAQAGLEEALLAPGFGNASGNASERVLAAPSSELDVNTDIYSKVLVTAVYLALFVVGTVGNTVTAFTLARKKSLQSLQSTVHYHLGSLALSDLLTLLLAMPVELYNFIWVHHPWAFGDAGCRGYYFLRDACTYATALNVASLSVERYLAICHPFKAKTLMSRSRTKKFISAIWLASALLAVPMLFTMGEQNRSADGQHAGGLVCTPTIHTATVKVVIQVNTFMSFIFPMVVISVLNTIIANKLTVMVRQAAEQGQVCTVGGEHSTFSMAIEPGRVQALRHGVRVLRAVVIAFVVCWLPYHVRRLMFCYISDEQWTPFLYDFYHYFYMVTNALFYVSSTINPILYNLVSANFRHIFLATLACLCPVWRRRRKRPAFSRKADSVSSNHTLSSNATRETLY
# ER stress rescue: rescue of cells from ER stress-induced death, primary screen, 384-well, CSM14.1, thapsigargin, ATP luminescence (AID 1222). CSM14.1 thapsigargin-induced death rescue, ATP luminescence; higher % means a stronger effect. cellular ATP content (survival), % at 20 µM; hits with a dose series show EC50 in µM. 190,000 tested, under 10 active;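 active = EC50 below 50 µM in the dose-response confirmation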;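 note: death triggered by thapsigargin at about 15 µM added after 2 h compound pretreatment; cell ATP read after overnight thapsigargin exposure of roughly 18 to 22 hours; normalized against plate controls of thapsigargin alone and 5% DMSO vehicle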
# KOR beta-arrestin-1: kappa opioid receptor blockers – cell-based, luminescence, uHTS (AID 1778); KOR beta-arrestin recruitment, luminescence, antagonist mode; higher % means a stronger effect; inhibition, % at 10 µM, or IC50 in µM where a hit was titrated; actives 0.091% (n = 290,000); in the data active = inhibition above about 50%; note: strong numbers were not always called active
# KOR beta-arrestin-2: KOR agonists, beta-arrestin recruitment, primary screen, cell-based, luminescence, uHTS (AID 1777); KOR beta-arrestin recruitment, luminescence; higher % means a stronger effect; activation, % at 10 µM; hits with a dose series show EC50 in µM; actives 0.02% (n = 280,000); in the data active = activation above about 50%, passing the limit was not always enough; note: a part of the inactive calls stands beside numbers as strong as those of hits
# GPR55 activation: GPR55 agonists via beta-arrestin recruitment, primary screen, imaging, U2OS cells, beta-arrestin-GFP redistribution (AID 1961) | activation, % at 10 µM; hits with a dose series show EC50 in µM | actives 0.048% (n = 290,000) | U2OS GPR55 beta-arrestin-GFP redistribution imaging; higher % means a stronger effect;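 active = activation above 40% with more than 50 cells counted in the well; inconclusive = wells holding fewer than 50 cells, flagged as toxic or sparse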;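 note: U2OS osteosarcoma cells stably expressing GPR55 and beta-arrestin-GFP; plate controls were DMSO negative control for no effect and LPI positive control for full effect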
# TNAP activators: human TNAP enzyme activators, primary screen, biochemical, luminescent, no phosphate acceptor, uHTS (AID 1001). purified TNAP, luminescent activation assay, no phosphate acceptor; higher activation fold means a stronger effect. activation fold at 20 µM, or EC50 in µM where a hit was titrated. actives 0.03% (n = 200,000); in the data active = activation fold from about 3, or a potency from the dose series; inactive = the rest, 99 in 100 with activation fold below about 1.6; note: many of its hits are not listed in these tables
# NTR1 ag cell count 20 µM: recorded beside NTR1 ag, whose call it bears; cell count; measured here: cell count, cytotoxicity flag
# Numbers without * were called inactive; i = inactive; ? = inconclusive; nt = not tested or not shown; [ ] = dose if it differs, or a comment. An excerpt; the hit share may differ from the screen's.
SMILES,Yfh1-off respiration,NTR1 ag,NTR1 ag cell count 20 µM,ER stress rescue,KOR beta-arrestin-1,KOR beta-arrestin-2,GPR55 activation,TNAP activators
Cn1c(=O)c2c(nc(NCc3ccco3)n2C/C=C/c2ccccc2)n(C)c1=O,i,20.4,37,5.7%,-60.8%,2.8%,-0.1%,1.2
CC(C)CCn1c(Sc2nc3ccccc3o2)nc2c1c(=O)[nH]c(=O)n2C,i,2.0,66,-2.6%,14.9%,4.8%,-0.3%,1.1
CCCC1/C(=N/O)CC(c2ccccc2)NC1c1ccccc1 (centres undefined),i,3.8,34,-2.2%,9.8%,8.3%,-0.2%,1
COc1ccc(OC)c(NC(=O)CSc2ncnc3c2cnn3-c2ccccc2Cl)c1,i,-1.9,87,10.0%,-8.9%,-3.1%,-0.4%,1
Cc1ccc(C)c(N2CCN(C(=O)CCS(=O)(=O)c3ccc4c(c3)NC(=O)C(C)S4)CC2)c1 (centres undefined),nt,10.5,60,nt,-39.4%,4.9%,-0.4%,nt
Cn1c(SCC(=O)NCc2ccc3c(c2)OCO3)nnc1-c1c[nH]c2ccccc12,i,0.3,58,-0.1%,26.0%,-0.9%,0.2%,1.1
CCC1C/C(=C\c2cc(OC)c(OC)cc2OC)C(=O)/C(=C/c2cc(OC)c(OC)cc2OC)C1 (centres undefined),nt,nt,nt,nt,-8.3%,0.3%,0.3%,nt
COc1ccc2c(c1OC)C(=O)OC2Nc1nc(-c2ccccc2)cs1 (centres undefined),i,7.6,50,-2.3%,5.7%,-0.8%,-0.3%,1.1
COc1ccc(Oc2ccccc2/C=N/O)cc1,i,0.9,64,-0.5%,9.4%,3.6%,-0.1%,1
Cc1ccc(C(=O)NC2CCCc3c2cnn3-c2ccc(F)cc2F)cn1 (centres undefined),nt,0.8,62,nt,-2.5%,0.3%,0.3%,nt
COc1ccc(NS(=O)(=O)c2ccc(N/N=C(\C)c3ccncc3)c([N+](=O)[O-])c2)cc1,?,2.4,76,-1.3%,nt,3.4%,0.8%,0.9
O=C(Nc1ccc2nc3n(c(=O)c2c1)CCCCC3)c1c(F)ccc([N+](=O)[O-])c1F,nt,34.7,57,nt,-21.4%,9.8%,1.7%,nt
Cc1ccc(CSC(Nc2ccc(F)cc2)=C(C#N)C#N)cc1,i,2.5,64,4.1%,-35.7%,4.8%,0.1%,1.1
CC[C@H]1CN2CCc3cc(OC)c(OC)cc3C2C[C@@H]1C[C@H]1NCCc2cc(OC)c(OC)cc21 (some centres undefined),nt,19.6,43,nt,nt,nt,nt,nt
CCCCN(c1ccccc1)c1ncnc(N)c1[N+](=O)[O-],i,1.5,77,-7.8%,-15.8%,4.4%,0.2%,1

# Gathered by group: the compounds so far containing an NH in an aromatic ring (2)
SMILES,Yfh1-off respiration,NTR1 ag,NTR1 ag cell count 20 µM,ER stress rescue,KOR beta-arrestin-1,KOR beta-arrestin-2,GPR55 activation,TNAP activators
CC(C)CCn1c(Sc2nc3ccccc3o2)nc2c1c(=O)[nH]c(=O)n2C,i,2.0,66,-2.6%,14.9%,4.8%,-0.3%,1.1
Cn1c(SCC(=O)NCc2ccc3c(c2)OCO3)nnc1-c1c[nH]c2ccccc12,i,0.3,58,-0.1%,26.0%,-0.9%,0.2%,1.1

# Other entries
SMILES,Yfh1-off respiration,NTR1 ag,NTR1 ag cell count 20 µM,ER stress rescue,KOR beta-arrestin-1,KOR beta-arrestin-2,GPR55 activation,TNAP activators
COc1cc(CNc2ccc3[nH]c(=O)[nH]c3c2)cc(Br)c1OCc1ccc(F)cc1,nt,4.2,95,nt,-47.9%,3.6%,0.0%,nt
Fc1ccccc1/C=N/Nc1ncnc2ccccc12,i,1.2,46,0.1%,10.9%,-5.1%,0.1%,1.5
Cc1cc(Nc2nc3ccccc3nc2Cl)n(-c2ccc([N+](=O)[O-])cc2)n1,i,4.5,62,1.4%,-8.1%,0.1%,-0.1%,1.1
Cc1cc(C)n2nc(-c3cccc(Br)c3)cc2n1,nt,2.6,55,nt,-19.4%[20 µM],-2.1%,-0.3%,nt
Nc1cc2ccncc2c2ccccc12,i,1.0,82,nt,-4.5%,4.6%,0.3%,nt
O=C(Nc1ccc(S(=O)(=O)N2CCCCC2)cc1)c1ccc(CN2CCOCC2)cc1,i,5.6,58,0.6%,-4.4%,0.5%,-0.3%,1
CC12CC(NC(=O)N1c1cccc(C(=O)NCc3ccccc3)c1)c1ccccc1O2 (centres undefined),nt,-2.6,28,-1.1%,-18.6%,-1.0%,-0.1%,1.1
O=C(c1cnc(N2CCN(c3ccccn3)CC2)c2ccccc12)N1CCN(c2cccc(Cl)c2)CC1,i,2.9,92,1.3%,6.9%,2.6%,0.1%,0.9
CCc1ccc(S(=O)(=O)Nc2ccc(O)c3ccccc23)cc1,nt,2.8,101,nt,-8.2%,-3.6%,0.0%,nt
Cn1nccc1C(=O)NC1CCCc2c1cnn2-c1ccc(F)cc1F (centres undefined),nt,3.9,39,nt,20.5%,5.0%,-0.1%,nt
O=C(CCl)Nc1cc(SCC(O)CO)cc([N+](=O)[O-])c1 (centres undefined),i,nt,nt,6.5%,-21.1%[20 µM],-4.6%,-0.1%,1.1
Cc1ccc(S(=O)(=O)n2c(C)nc3ccccc32)cc1,nt,3.7,60,nt,6.8%[20 µM],1.3%,-0.1%,nt
Cc1ccc(-c2noc(CCCC(=O)NC3CCCCC3)n2)cc1,nt,0.3,66,nt,-28.4%,0.9%,0.0%,nt
Oc1c(CN2CCc3ccccc3C2)cc(Cl)c2cccnc12,i,5.2,58,6.1%,-4.0%,8.0%,-0.1%,1.1
Cn1nc([N+](=O)[O-])nc1Sc1cccc2cccnc12,i,5.8,39,-1.3%,20.0%[20 µM],nt,0.3%,1.1
Cc1ccc(Cl)cc1N1CCN(C(=O)CSc2nnc3n2C(C)(C)Cc2ccccc2-3)CC1,i,17.2,85,12.7%,-5.1%,-20.3%,0.4%,1.1
CC1C/C(=C/c2ccncc2)C(=O)/C(=C/c2ccncc2)C1 (centres undefined),i,2.2,57,3.4%,-17.8%,0.6%,1.8%,1.1
CCOC(=O)c1cc2c(=O)n3ccccc3nc2n(CCCOC)c1=NC(C)=O,nt,1.6,93,-0.4%,-43.5%,5.0%,0.2%,1.1
NC(=O)c1cc2ccncc2c2ccccc12,i,0.1,89,nt,10.1%,1.0%,-0.1%,nt
O=c1cc(C(F)(F)F)nc(SCc2cccc3ccccc23)[nH]1,nt,0.4,79,nt,-22.5%,1.4%,0.2%,nt
COc1cccc(/C=N/NC(=O)c2ccc(-c3ccccc3)cc2)c1O,i,7.2,43,0.3%,-13.3%,-5.3%,0.2%,1.2
O=C(OCc1ccccc1)N1CCc2ccccc21,nt,1.9,51,nt,3.3%,-2.1%,0.8%,nt
Cc1c(CCC(=O)O)c(=O)oc2cc3oc4c(c3cc12)CCCC4,i,2.2,52,nt,5.2%,1.1%,-0.1%,nt
O=S(=O)(Nc1ccc(O)c2ccccc12)c1ccc(Br)cc1,nt,1.3,57,nt,-6.5%,2.9%,-0.1%,nt
Cc1c(C)c2ccc(OCC(=O)Nc3ccc(N4CCC(C)CC4)cc3)cc2oc1=O,nt,3.2,66,nt,22.8%,-1.6%,0.4%,nt
COc1ccc(C2(C(=O)N3CCOCC3)CCCC2)cc1,i,1.0,46,-0.6%,-20.1%,4.3%,-0.1%,1.1
Cc1cc(C(=O)CSc2nc3ccccc3c(=O)n2C)c(C)n1Cc1ccc2c(c1)OCO2,i,4.2,98,-1.9%,-40.0%,-0.6%,-0.2%,1.1
O=C(Nc1ccc(F)cc1)Nc1ccc2c(c1)OCO2,nt,0.4,50,nt,31.4%,-2.5%,-0.2%,nt
CCCCCCCCn1c2c(c(=N)c3c1CCC3)CCCC2,i,29.1,37,-3.9%,-30.7%,-4.7%,0.4%,1.2
COc1ccc(C(=O)/C=C/C(=O)N(CC(=O)NC2CCCCC2)Cc2ccccc2OC)c(O)c1,i,nt,nt,-3.6%,56.3%*,-4.2%,nt,1.1

# Printed as active in KOR beta-arrestin-1, among the entries above:
smiles	KOR beta-arrestin-1	KOR beta-arrestin-2	TNAP activators
COc1ccc(C(=O)/C=C/C(=O)N(CC(=O)NC2CCCCC2)Cc2ccccc2OC)c(O)c1	56.3%*	-4.2%	1.1

# Continued.
SMILES,Yfh1-off respiration,NTR1 ag,NTR1 ag cell count 20 µM,ER stress rescue,KOR beta-arrestin-1,KOR beta-arrestin-2,GPR55 activation,TNAP activators
CCOC(=O)C1=C(c2ccc(OC)cc2)C(=O)c2ccccc2C1=O,i,nt,nt,-6.7%,-7.1%,5.7%,-0.1%,1.1
COc1nc(Nc2nc3ccccc3c(=O)[nH]2)nc2ccc(C)cc12,i,3.5,55,nt,-15.5%,4.7%,-0.1%,nt
CN1C(=O)/C(=C/c2ccccc2Cl)Sc2ccc(C(=O)N3CCCC3)cc21,nt,4.9,57,nt,4.1%,-2.9%,-0.2%,nt
Cc1nn(Cc2c(F)c(F)c(F)c(F)c2F)c(C)c1NC(=O)c1cccc(COc2ccccc2Cl)c1,i,0.6,67,2.0%,-26.7%,3.9%,0.0%,1.1
COc1ccc(-n2c(C)c([N+](=O)[O-])c3ccc(O)c(CN(C)C)c32)cc1,nt,-0.1,31,3.9%,-20.2%,5.2%,0.3%,0.9
CCOc1ccccc1NC(=O)CSc1nc2nc(-c3cccs3)cc(C(F)(F)F)c2c(=O)[nH]1,i,9.3,50,nt,5.8%,-1.9%,-0.3%,nt
COc1ccc(-n2c(C)c(C(C)=O)c3cc(O)ccc32)cc1,nt,3.8,60,-1.5%,-1.9%,2.7%,0.3%,1.3
O=S(=O)(N/N=C\c1cn(-c2ccccc2)nc1-c1ccccc1)c1ccccc1,i,1.6,40,2.1%,-8.4%,13.7%,-0.1%,1.1
COc1ccc(-c2n(CC(=O)OC3CC(C)CCC3C(C)C)c3ccccc3[n+]2C)cc1 (centres undefined),i,nt,nt,0.0%,-34.8%[20 µM],nt,nt,1
COc1ccccc1-c1cc(C(F)(F)F)nc(S(=O)(=O)CCCC(=O)N2CCCCC2C)n1 (centres undefined),i,15.8,64,5.2%,3.5%,-5.5%,1.8%,1.1
CCOC(=O)c1sc(=N)n(-c2ccc(OC)cc2)c1C,nt,1.0,60,-1.1%,1.3%,-0.6%,0.0%,1.1
CC(=O)NC(c1ccc2ccccc2c1)c1ccc2cccnc2c1O (centres undefined),nt,3.4,66,nt,15.1%,-1.5%,0.6%,nt
O=C(Cc1ccccc1)NC(NC(=S)Nc1cc(Cl)ccc1Cl)C(Cl)(Cl)Cl (centres undefined),i,1.3,87,4.8%,-10.7%,2.2%,0.4%,1.2
O=C(c1ccc2c(c1)CCN2S(=O)(=O)c1ccccc1)N1CCN(c2ccc(F)cc2)CC1,nt,4.3,57,nt,22.1%,3.3%,-0.1%,nt

# Fetched by compound from above (3):
SMILES,Yfh1-off respiration,NTR1 ag,NTR1 ag cell count 20 µM,ER stress rescue,KOR beta-arrestin-1,KOR beta-arrestin-2,GPR55 activation,TNAP activators
COc1nc(Nc2nc3ccccc3c(=O)[nH]2)nc2ccc(C)cc12,i,3.5,55,nt,-15.5%,4.7%,-0.1%,nt
Cc1nn(Cc2c(F)c(F)c(F)c(F)c2F)c(C)c1NC(=O)c1cccc(COc2ccccc2Cl)c1,i,0.6,67,2.0%,-26.7%,3.9%,0.0%,1.1
COc1ccccc1-c1cc(C(F)(F)F)nc(S(=O)(=O)CCCC(=O)N2CCCCC2C)n1 (centres undefined),i,15.8,64,5.2%,3.5%,-5.5%,1.8%,1.1
